BmaI1 enzyme = BmaI1 acyl-homoserine lactone synthase inhibition – biochemical, fluorescence intensity, with counterscreen (AID 720554); BmaI1 enzyme assay, fluorescence intensity; active compounds read high; test concentration not given here; a few actives read low; strong numbers were not always called active; inhibition, %; 12,000 tested, 0.4% active;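 active = both replicates within 2 robust z-scores of the inhibited control and a quiet counterscreen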;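 also: 0% = uninhibited enzyme and 100% = inhibited control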
BmaI1 enzyme counterscreen = second read-out of BmaI1 enzyme, no call of its own (marks repeat the call); inhibition, %; measured here: counterscreen; design of the counterscreen not given here;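 first of two replicates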
* hit, by the source's call. This is a subset (hit frequency here may not be typical).

SMILES	BmaI1 enzyme	BmaI1 enzyme counterscreen
O=C(COC(=O)c1n[nH]c2ccccc12)Nc1ccc(N2CCOCC2)cc1	10	2
O=c1[nH]c(=O)n(C2CCCO2)cc1F (configuration not stated)	-14	-9
CS(=O)(=O)c1cccc(C(=O)O)c1	12	3
O=C(Cn1nc(C(=O)O)c2ccccc2c1=O)NC12CC3CC(CC(C3)C1)C2	7	-8
COC(=O)c1nc(NC(=O)c2ccccc2)n[nH]1	16	-4
CNS(=O)(=O)c1cccc(C(=O)OCC(=O)N2c3ccccc3NC(=O)C2(C)C)c1	14	6
COc1ccc(N(CC(=O)c2cc(C)n(C)c2C)S(=O)(=O)c2ccc3c(c2)OCCO3)cc1	14	12
COc1ccc(C)cc1C(=O)CCC(=O)NC1CCCCC1	-1	0
COc1cccc(CNC(C)C(=O)Nc2ccc(S(N)(=O)=O)cc2)c1 (configuration not stated)	-12	-7
Cc1ccc2nc(-c3ccc(NC(=O)C(C)N4CCN(C(=O)c5ccco5)CC4)cc3)sc2c1 (configuration not stated)	12	12
O=C(Cn1[nH]c(=O)c2ccccc2c1=O)Nc1cccnc1	12	12
Cc1nn(-c2ccccc2)c(C)c1/C=N/NC(=O)CCc1ccc(S(=O)(=O)N2CCOCC2)cc1	2	0
CCO/C=C1/C(=O)N(c2ccc(S(=O)(=O)N3CCOCC3)cc2)C(=O)c2ccccc21	20	14
CN(C)C(=O)COC(=O)c1oc2ccccc2c1COc1ccccc1	6	0
Cc1ccc(CC(=O)Nc2ccc(S(=O)(=O)NCc3ccco3)cc2)cc1C	24	14
COc1ccc(NC(=O)c2cccc(Br)c2)cn1	-10	-9
O=C(Cc1csc(-c2ccccc2)n1)N(Cc1ccco1)Cc1cccs1	8	8
CS(=O)(=O)c1ccc(Cl)c(C(=O)OCc2nc3ccccc3s2)c1	20	8
COc1cc(O)cc(OC)c1	-7	3
N#C/C(=C(/O)CN1CCN(S(=O)(=O)c2ccccc2C#N)CC1)c1nc2ccccc2[nH]1	18	12
CC1CC(C)CN(C(=O)COC(=O)c2ccc(O)cc2)C1 (configuration not stated)	0	-1
N#Cc1cnn(C(=O)c2cccc(S(=O)(=O)Nc3ccc(Cl)cc3)c2)c1N	23	16
Cc1cc(C(=O)CONC(=O)C23CC4CC(CC(C4)C2)C3)c(C)n1C	7	6
CCOC(=O)c1c(C)oc2c1c(C=NCCO)c(O)c1ccccc12	9	6
O=C(NC(Cc1ccccc1)C(=O)NCc1ccco1)c1ccccc1 (configuration not stated)	5	-2
Clc1cccc(Cl)c1CSc1nnc(N2CCOCC2)n1-c1ccccc1	7	2
Cc1ncc([N+](=O)[O-])n1CC(C)O (configuration not stated)	-2	2
CCn1c(SCC(=O)Nc2cccc3nsnc23)nc2ccccc21	6	0
O=Nc1c(O)[nH]c2c(C(F)(F)F)cccc12	13	11
O=C(O)c1ccccc1NS(=O)(=O)c1cccc(-n2sc3ccccc3c2=O)c1	88	51
Cc1ccccc1CSCc1nc2ccccc2c(=O)n1CC#N	10	10
CC(=O)Nc1cccc(C(=O)OCC(=O)N2CCN(c3ccccc3)CC2)c1	8	7
Cn1c(CC(N)=S)nc2ccccc21	92*	17*
COc1cccc(Nc2nnc(SCC(=O)c3cc(C)n(C)c3C)s2)c1	20	9
CSC(=C(C#N)C#N)N1CCOCC1	16	-2
Cc1cc(N(C(=O)c2cc3c(s2)CCC3)C(=O)c2cc3c(s2)CCC3)no1	20	6
Cc1noc(C)c1COc1ccc(C(=O)OCC(=O)N2CC(=O)Nc3ccccc32)cc1	5	2
O=C(Cn1c(=O)c(F)cn(C2CCCO2)c1=O)Nc1cccc(I)c1 (configuration not stated)	5	4
FC(F)(F)c1cnc(SCc2ncc(-c3ccccc3)o2)c(Cl)c1	20	9
CC(=O)NCc1ccc(C(=O)CSc2nnc(C)n2Cc2ccccc2)o1	14	10
CC(NC(=O)C1COc2ccccc2O1)c1ccccc1F (configuration not stated)	16	16
O=C(c1cnn(S(=O)(=O)c2ccccc2)c1)c1cc(Cl)ccc1O	1	-4
CCCC(C)C1C(C#N)=C(N)Oc2cc(N)ccc21 (configuration not stated)	35	14
CC(C)C(NC(=O)c1c(F)cccc1F)C(=O)N1CCN(S(=O)(=O)c2ccc(F)cc2)CC1 (configuration not stated)	7	2
Cc1nsc(N)c1C(=O)OCc1ccc(C#N)cc1	24	11
CN(C)CCCN1c2ccccc2CCc2ccccc21	3	18
C#C[C@]1(O)CC[C@H]2[C@@H]3CCC4=Cc5oncc5C[C@]4(C)[C@H]3CC[C@@]21C	8	31
CC(NS(=O)(=O)c1ccccc1C#N)C1CC2CCC1C2 (configuration not stated)	17	18
NC(=O)C1CCN(C2=NS(=O)(=O)c3ccccc32)CC1	8	4
COc1ccc2c(C)cc(=S)[nH]c2c1	18	30
More compounds.
SMILES	BmaI1 enzyme	BmaI1 enzyme counterscreen
O=C(Cc1coc2ccc3ccccc3c12)Nc1cc(C(F)(F)F)ccc1-n1cncn1	16	12
COc1ccc(C(=O)NCc2cccnc2)cc1S(=O)(=O)N1CCCc2ccccc21	10	4
COc1c2occc2cc2ccc(=O)oc12	9	12
N#Cc1ccsc1NC(=O)CC1(CC(=O)O)CCCC1	30	10
Cc1cc(C(=O)COC(=O)/C=C/c2cccs2)c(C)n1C1CC1	4	0
N#CC1(C(=O)O)CCCC1	7	-3
O=C(Nc1cccc(C(F)(F)F)c1)Nc1ccc2[nH]c(=O)[nH]c2c1	53	27
O=C1CCCN1CCCNc1nsc2ccccc12	46	-4
Cc1cc(-c2csc(CC#N)n2)c(C)n1Cc1ccco1	16	14
O=C1c2ccccc2NC(c2cccs2)N1c1ccc2c(c1)OCCO2 (configuration not stated)	12	10
CC(NC(=O)CSc1ccccn1)c1ccc2c(c1)OCO2 (configuration not stated)	6	-8
CCCC1(CCC)NC(=O)N(CCOc2ccc(C)cc2)C1=O	12	9
CCOC(=O)C1=C(CSc2nnc3n(-c4ccccc4)c(=O)c4ccccc4n23)NC(=O)NC1C (configuration not stated)	88	51
Cc1n[nH]c(C)c1NC(=O)CSc1ccc(F)cc1	8	13
CC(Nc1nc(C(C)(C)C)cs1)=C(C#N)C#N	15	14
Cc1c(C#N)c(/N=C/c2c(O)[nH]c(=O)[nH]c2=O)n(C2CCCCC2)c1C	54	18
O=C(NC(Cc1ccccc1)C(=O)N1CCC1)c1ccccc1 (configuration not stated)	4	3
COC(=O)c1cc(-c2c(C)oc3cc(OC(C)=O)ccc3c2=O)c(C)o1	12	4
COc1cc(/C=N/N(C)C)ccc1OC(=O)c1cccs1	4	0
Cn1nnnc1SCC(=O)Nc1ccc(C(=O)NCc2ccc3c(c2)OCO3)cc1	8	2
CCCCn1c(SCC#N)nc2ccccc2c1=O	12	8
O=C(COC(=O)/C=C/c1ccc(Br)o1)Nc1ccc(N2CCOCC2)cc1	-8	-10
O=C(CSc1nccc(=O)[nH]1)NC1CCCCCC1	12	12
Cc1ccc2nc(-c3ccc(NS(C)(=O)=O)cc3)sc2c1	-2	-3
O=C(Cc1cccc(C(F)(F)F)c1)NCC(c1ccco1)N1CCCCC1 (configuration not stated)	21	8
O=C(CSc1nc2ccccc2[nH]1)NC1CCS(=O)(=O)C1 (configuration not stated)	6	-2
CC(C)Cn1c(SCC(=O)c2ccc3c(c2)NC(=O)CO3)nc2ccccc2c1=O	12	8
CCCCN1CCCC1CNC(=O)c1cc(C#N)c2ccccc2c1OC (configuration not stated)	55	6
Nn1c(Cc2ccccc2F)nnc1SCc1cc(=O)n2ccsc2n1	16	4
Cc1ccc(-n2nc(C)c(C3(O)C(=O)N(C)c4ccccc43)c2N)cc1 (configuration not stated)	22	10
COCC(C)n1c(C)cc(C(=O)COC(=O)c2cc(-c3ccco3)nc3ccccc23)c1C (configuration not stated)	14	12
N#Cc1ccc(C(=O)N2CCCSC2=NCCc2ccccc2)cc1	-6	-6
Cc1ccc(CNC(=O)COc2nc3ccccc3nc2N2CCOCC2)cc1	18	12
COc1ccc(-c2nn(CN(CC(C)C)CC(C)C)c(=S)n2CC2CCCO2)cc1 (configuration not stated)	20	16
CCOc1cc(CNCc2ccc(CN3CCOCC3)cc2)ccc1OCC(=O)N(C)C	6	6
Cc1ccc(Cn2ccsc2=NC(=O)C2(C#N)CCCC2)cc1	-8	-7
CCCCn1c(SCC(=O)NC(=O)NC2CCCC2)nc2ccccc2c1=O	14	6
CCOC(=O)c1ccc(-n2c(C)cc(C=NCc3cn4ccsc4n3)c2C)cc1	18	4
CN(C(=O)COC(=O)C1(c2ccc(Cl)cc2)CC1)C1CCS(=O)(=O)C1 (configuration not stated)	10	6
O=C(Nc1ccc(OC(F)(F)F)cc1)c1ccc(=O)[nH]c1	0	7
CCOC(=O)C1CCN(Cc2nc3sc4c(c3c(=O)[nH]2)CCCC4)CC1	9	4
O=C(Cc1coc2cc(O)ccc12)OCc1ccccc1C(F)(F)F	15	10
CCN(CC)S(=O)(=O)c1ccc(NC(=O)Cc2ccc3c(c2)OCCO3)cc1	22	-10
COc1cc(SC)ccc1C(=O)NCC1CCCCC1	15	5
COc1ccc2c(CC(=O)OCc3cc(Cl)c4c(c3)OCCCO4)coc2c1	-4	-6
Cc1nc(N2CCOCC2)sc1C(=O)c1ccc(Cl)c(S(=O)(=O)N2CCOCC2)c1	0	2
NC(=O)c1c(NC(=O)c2ccc3c(c2)S(=O)(=O)N=C2CCCCCN23)sc2c1CCC2	31	8
CC1=Nc2nc(N3CCCCC3)c(C#N)c3c4c(nc(c23)N1)N(c1ccc(C)cc1)C(=O)C4	80	-14
CN(C(=O)CSc1cccc[n+]1[O-])c1ccccc1	-6	-9
Cn1nc(C(=O)N(Cc2ccco2)Cc2cccs2)ccc1=O	10	10
Cc1cc2occ(CC(=O)Nc3ccc(S(=O)(=O)N4CCOCC4)cc3)c2cc1C(C)C	26	-1
COc1ccc(NC(=O)CN(C)C(=O)c2oc3ccccc3c2C)cc1	16	18

Some of the entries above in another layout:
SMILES,BmaI1 enzyme,BmaI1 enzyme counterscreen
COc1cccc(Nc2nnc(SCC(=O)c3cc(C)n(C)c3C)s2)c1,20,9
CSC(=C(C#N)C#N)N1CCOCC1,16,-2
Cc1cc(N(C(=O)c2cc3c(s2)CCC3)C(=O)c2cc3c(s2)CCC3)no1,20,6
Cc1noc(C)c1COc1ccc(C(=O)OCC(=O)N2CC(=O)Nc3ccccc32)cc1,5,2
O=C(Cn1c(=O)c(F)cn(C2CCCO2)c1=O)Nc1cccc(I)c1 (configuration not stated),5,4
FC(F)(F)c1cnc(SCc2ncc(-c3ccccc3)o2)c(Cl)c1,20,9
CC(=O)NCc1ccc(C(=O)CSc2nnc(C)n2Cc2ccccc2)o1,14,10
CC(NC(=O)C1COc2ccccc2O1)c1ccccc1F (configuration not stated),16,16
O=C(c1cnn(S(=O)(=O)c2ccccc2)c1)c1cc(Cl)ccc1O,1,-4
CCCC(C)C1C(C#N)=C(N)Oc2cc(N)ccc21 (configuration not stated),35,14
CC(C)C(NC(=O)c1c(F)cccc1F)C(=O)N1CCN(S(=O)(=O)c2ccc(F)cc2)CC1 (configuration not stated),7,2
Cc1nsc(N)c1C(=O)OCc1ccc(C#N)cc1,24,11
CN(C)CCCN1c2ccccc2CCc2ccccc21,3,18
C#C[C@]1(O)CC[C@H]2[C@@H]3CCC4=Cc5oncc5C[C@]4(C)[C@H]3CC[C@@]21C,8,31
CC(NS(=O)(=O)c1ccccc1C#N)C1CC2CCC1C2 (configuration not stated),17,18
NC(=O)C1CCN(C2=NS(=O)(=O)c3ccccc32)CC1,8,4
COc1ccc2c(C)cc(=S)[nH]c2c1,18,30
O=C(Cc1coc2ccc3ccccc3c12)Nc1cc(C(F)(F)F)ccc1-n1cncn1,16,12
COc1ccc(C(=O)NCc2cccnc2)cc1S(=O)(=O)N1CCCc2ccccc21,10,4
COc1c2occc2cc2ccc(=O)oc12,9,12
N#Cc1ccsc1NC(=O)CC1(CC(=O)O)CCCC1,30,10
Cc1cc(C(=O)COC(=O)/C=C/c2cccs2)c(C)n1C1CC1,4,0
N#CC1(C(=O)O)CCCC1,7,-3
